# Sa helicase inh = blocks Staphylococcus aureus DNA helicase | AID 485395 | inhibition, %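 (tested at about 80 µM)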 | 120,000 compounds, 0.05% hits | purified S. aureus helicase, fluorescence unwinding assay; about half of the hits fall short of the stated cut;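 active = both duplicates at 50% or more, or one of them with a favoured structure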;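 note: 0% = mean of negative control wells and 100% = mean of positive control wells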
# MgrA DNA FP = modulators of Staphylococcus aureus MgrA DNA binding | inhibition, %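 (about 10 µg/mL by stock and volumes)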 | 84,000 compounds, 0.13% hits | fluorescence polarization;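 active = above 50% in either of two replicates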;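 note: 0% = protein plus DNA without compound and 100% = DNA alone without protein; higher means less MgrA bound to DNA so lower polarization; one replicate is shown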
# * = called active by the depositor; / = not tested or not shown; & = joins results of further samples. The list is partial (hit frequency here may not be typical).
Sa helicase inh	MgrA DNA FP	SMILES
-9	/	Nc1c(S(=O)(=O)c2ccccc2)c2nc3ccccc3nc2n1C1CC1
0	-0.8	O=C(/C=C1\NC2(CCCC2)Cc2ccccc21)N1CCOCC1
/	-1.1	CCOC(=O)c1[nH]c2c([N+](=O)[O-])cc(C)cc2c1CCN1C(=O)c2ccccc2C1=O
-7	1.9	C(=NCc1ccccc1)c1cn(-c2ccccc2)nc1-c1cccs1
13	5.3	O=C(O)CCCN=C1NC(=O)CC(=O)N1
2	/	O=C(Nc1nnc(-c2ccccc2)o1)c1cccc(C(F)(F)F)c1
-20	/	N#CC1(NCCNC2(C#N)CCCCC2)CCCCC1
11	-0.2	COc1ccc(C=Nc2nonc2N)cc1
2	-0.9	CNC(=S)N(CCN1CCOCC1)Cc1cc2cc(C)c(Cl)cc2[nH]c1=O
/	0.2	Cn1c2c(c3ccccc31)/C(=N/OC(=O)c1ccc(Cl)cc1Cl)CCC2
8	/	COc1ccccc1NCC(=O)N/N=C/C=C1/N(C)c2ccccc2C1(C)C
6	/	C/C(=C\C(=O)C(F)(F)F)NCC1CCCO1 (stereo not drawn)
6	0.2	COc1ccc(C(=O)C[N+]2=C(C)c3ccc(C)n3CC2)cc1
6	0.3	Cc1cc(SCC(N)=O)nc2ccccc12
/	0.0	CS/C(Nc1cccnc1)=C(/C#N)c1ccccn1
-8	-1.8	CCS(=O)(=O)N1CCC(C(=O)N2CCc3ccccc3C2)CC1
11	/	CCOc1ccc(C(=O)OCC(=O)N2CCCCC2)cc1OCC
3	/	CON1C(=O)c2ccccc2C1=O
-5	-2.4	CC(=O)Oc1ccccc1C(=O)NCc1ccc(F)cc1
8	-3.2	Cc1ccc(S(=O)(=O)NN(C)C)cc1
9	/	CC(NC(=O)c1ccccc1)c1ccc(F)cc1 (stereo not drawn)
-12	/	O=C(NCc1ccco1)C1CCN(c2nccc(C(F)(F)F)n2)CC1
-12	/	N#Cc1ccc(CCC(=O)c2cccs2)cc1
16	/	Cn1cnnc1Sc1ccc(Cl)cc1NC(=O)c1ccc(C#N)cc1
/	24	O=C1ON=C(c2ccccc2)/C1=C/c1ccc(Cl)cc1
-14	/	S=C(NCc1ccco1)NC1OCCOC1NC(=S)NCc1ccco1 (stereo not drawn)
/	-2.5	O=C(Nc1ccc2c(c1)OCCO2)c1cccnc1Sc1ccccc1
/	-1.1	Nc1ccccc1C(O)(Cc1ccccc1)c1ccccc1 (stereo not drawn)
29	-0.1	c1cncc(-c2nc3c4ccccc4nc(NCCCN4CCCCCC4)n3n2)c1
11	/	N#Cc1ccccc1NC(=O)c1ccc(N2C(=O)CCC2=O)cc1

# Arranged by the number under Sa helicase inh (rising): some entries from above
Sa helicase inh	MgrA DNA FP	SMILES
-12	/	N#Cc1ccc(CCC(=O)c2cccs2)cc1
9	/	CC(NC(=O)c1ccccc1)c1ccc(F)cc1 (stereo not drawn)
11	/	N#Cc1ccccc1NC(=O)c1ccc(N2C(=O)CCC2=O)cc1
16	/	Cn1cnnc1Sc1ccc(Cl)cc1NC(=O)c1ccc(C#N)cc1
29	-0.1	c1cncc(-c2nc3c4ccccc4nc(NCCCN4CCCCCC4)n3n2)c1

# Part of the list above, as labelled records.
N#Cc1ccccc1NC(=O)c1ccc(N2C(=O)CCC2=O)cc1
  Sa helicase inh: 11; MgrA DNA FP: /

O=C(Nc1ccc2c(c1)OCCO2)c1cccnc1Sc1ccccc1
  Sa helicase inh: /; MgrA DNA FP: -2.5

c1cncc(-c2nc3c4ccccc4nc(NCCCN4CCCCCC4)n3n2)c1
  Sa helicase inh: 29; MgrA DNA FP: -0.1

Nc1ccccc1C(O)(Cc1ccccc1)c1ccccc1 (stereo not drawn)
  Sa helicase inh: /; MgrA DNA FP: -1.1

# Remaining list, next part
Sa helicase inh	MgrA DNA FP	SMILES
/	0.7	COc1cc(NC(=O)c2cc3nc(-c4ccco4)cc(C(F)(F)F)n3n2)c(OC)cc1Cl
7	-2.0	COc1ccc(CNC(=O)c2ccc3nc(N4CCOCC4)sc3c2)cc1
0	-4.2	COCCCNC1CCOc2ccccc21 (stereo not drawn)
2	-1.7	C[N+]1(CC(O)COc2ccccc2F)CCOCC1 (stereo not drawn)
-4	/	CC1=C(C(=O)Nc2cccc(C(F)(F)F)c2)C(c2ccc3c(c2)OCO3)NC(=O)N1 (stereo not drawn)
0	/	CCOc1cc(N2CCOCC2)c(OCC)cc1NC(=O)c1cc(-c2ccco2)nc2ccccc12
7	/	N/C(CCn1nnc2ccccc21)=N\O
-15	1.2	O=C(Cc1ccccc1)Nc1ccc(N2CCCC2=O)cc1
7	-5.2	Nc1ccc(N2CCOCC2)cc1
23	/	Cc1cc(NC(=O)c2cc(C3CC3)on2)no1
2	0.7	Cc1ccc(C(=O)Nc2ccccc2N2CCCCC2)c(C)c1
-6	/	O=C(COc1ccc2ccc(=O)oc2c1)N1CCc2ccccc21
-3	0.5	CCOC(=O)C1CCN(c2nc3cc(Br)ccc3s2)CC1
/	-10	CCOC(=O)c1c(S(=O)(=O)NCc2ccccc2)c(-c2ccccc2)n(-c2ccccc2)c1C
-2	1.1	Cc1nnc(NC(=O)C2CCCN(c3ncccn3)C2)s1 (stereo not drawn)
1	/	O=C(CSc1ncc(CO)n1Cc1ccc(Cl)cc1)NC1CCCCC1
11	-1.4	O=C(NCn1nc(-c2ccccc2)nc1-c1ccccc1)c1cccnc1
15	0.9	CCC(=O)Nc1ccc2nc(SCc3ccc(F)c4ccccc34)sc2c1
/	-1.1&4.8	CC(C(=O)O)c1cccc(Oc2ccccc2)c1 (stereo not drawn)
/	-2.6	Cn1ccnc1SCC(=O)N1CCc2c([nH]c3ccccc23)C1C(F)(F)F (stereo not drawn)
/	-0.3	O=C(NCc1ccc2c(c1)OCO2)NC1CCCCC1
-6	3.5	O=C(COC(=O)c1ccccc1)c1ccc(-c2ccccc2)cc1
12	0.2	CCC(C)NC(=O)C1CCC(=O)N(c2cc(OC)c(OC)c(OC)c2)C1c1ccc(OC)cc1 (stereo not drawn)
17	-1.8	CS(=O)(=O)c1cccc(S(=O)(=O)c2cccc(S(C)(=O)=O)c2)c1
-4	-3.3	Nc1c(C(=O)NC2CCCC2)nnn1-c1ccccc1
/	1.6	CC1CC(=O)Nc2ccccc2N1C(=O)c1cc(Cl)sc1Cl (stereo not drawn)
19	-0.2	N#Cc1ccc(COn2nnc3ccccc32)cc1
/	0.3	CCOc1ccc(N=C2SC(C(=O)Nc3ccc(C(=O)O)cc3)CC(=O)N2C)cc1 (stereo not drawn)
11	0.9	Cc1cc(C(F)(F)F)nc(SCC(=O)NCc2cccc(C(F)(F)F)c2)n1
-16	-1.7	O=C(c1ccc(S(=O)(=O)Nc2ccccc2Cl)cc1)N1CCCC1
-1	/	O=C(CSc1nnc(-c2ccco2)n1-c1ccccc1)NC(=O)c1ccccc1
/	-1.8	CCCCNC(=O)NS(=O)(=O)c1cc(Cl)sc1Cl
21	/	COc1ccc2nc(NC(=O)c3ccccc3NS(=O)(=O)c3cccs3)sc2c1
10	/	CCC(=O)n1c(=O)oc2ccc(Cl)cc21
/	1.3	COC(=O)C1SCCN1C(=O)c1ccc(Cl)cc1 (stereo not drawn)
14	-2.8	O=C1Nc2ccccc2C1=Nc1cccc(C(F)(F)F)c1
6	/	CN1CCC(N(C)CC(O)COCc2ccccc2Cl)CC1 (stereo not drawn)
/	0.3	O=S(=O)(c1ccc(F)cc1)N1CCCN(c2c(Cl)cncc2Cl)CC1
-86	5.8	COCCN1C(=O)/C(=C/c2cc(OC)c(O)cc2Br)SC1=S
23	/	O=C1c2ccccc2-c2nnc(-c3cccc(OC(F)(F)F)c3)cc21
/	-0.6	Cc1ccc(N2C(=O)C3C4C=CC(CO)(O4)C3C2=O)cc1Br (stereo not drawn)
7	-12	CC1(C)CC(c2ccccc2)(C(CO)CNCc2ccccc2)CCO1 (stereo not drawn)
-13	-0.3	CCN(CC)CCN1C(=O)C(O)=C(C(=O)c2sc(C)nc2C)C1c1ccccn1 (stereo not drawn)
-26	/	Cc1cc(C)nc(SCc2cc(=O)c(OC(=O)c3c(-c4ccccc4Cl)noc3C)co2)n1
20	-5.2	CC1(C)CC(NS(C)(=O)=O)CC(C)(C)N1O
18	-0.6	Cc1ccccc1OCC(=O)OC1CCCN(C)C1 (stereo not drawn)
9	/	O=c1ccn2c(SCc3ccccc3)nnc2[nH]1
18	-1.0	CC(=O)N/C(=C\c1ccc(Cl)cc1)C(=O)NCc1ccccc1
4	1.3	O=S(=O)(NC12CC3CC(CC(C3)C1)C2)c1cccc(C(F)(F)F)c1
8	-0.9	O=C(CN1C(=O)CSC1=O)N1CCCC1

# Following part
Sa helicase inh	MgrA DNA FP	SMILES
10	-0.4	Cc1c(Cl)cccc1NC(=O)CCCN1C(=O)CCC1=O
11	/	CNc1nc2c([nH]1)c(=O)n(C)c(=O)n2C
-12	/	CC(C)[C@H](NC(=O)c1ccco1)C(=O)N(C)Cc1c(F)cccc1Cl
-22	/	C=CCN=c1scc(-c2ccco2)n1/N=C/c1ccc(C(=O)OC)cc1
/	2.1	COc1cc(NC(=O)c2nn3c(C(F)(F)F)cc(-c4ccco4)nc3c2Cl)cc(OC)c1OC
4	/	CCOc1nc2cnccc2n(Cc2ccccc2C#N)c1=O
-21	/	CCn1cc(C(=O)NCc2cccnc2)c(=O)c2cc(S(=O)(=O)N3CCCC3)ccc21
-2	/	COc1ccc(-c2nnc(SCC(=O)N3CC(=O)Nc4ccccc43)o2)cc1OC
4	-2.8	CC(C)=NNC(=O)c1ccccc1
-1	2.9	CCN(/C=C1\SC(=S)N(c2ccc(OC)cc2)C1=O)CC
-5	20	CCS(=O)(=O)N1CCN(c2nc(C)nc3sc4c(c23)CCC(C)C4)CC1 (stereo not drawn)
/	0.1	O=C(CC(CC(=O)c1ccccc1)c1cccc2ccccc12)c1ccccc1
2	-0.9	COCc1cc(C)nc2sc(C(N)=O)c(N)c12
2	/	O=C(CC(=O)c1ccccc1)Nc1ccccc1
-2	-0.5	Oc1ccc(Cn2nc(-c3ccc(O)cc3)c3ccccc32)cc1
13	0.3	CCN(CC)c1ccc(NC(=O)CSc2cccc[n+]2[O-])cc1
8	-0.8	CCN(CC)C(=O)c1ccc(C(=O)c2ccccc2)o1
28	/	Cc1ccc(NC(=O)Nc2c(C)noc2-c2cccs2)cc1
-16	/	COc1ccc(C2=NN(C(=O)COc3ccc(-c4nnco4)cc3)C(c3ccco3)C2)cc1 (stereo not drawn)
/	-1.0	CCOc1cc(/C=c2/sc3nc4cc(C)c(C)cc4n3c2=O)ccc1OCc1ccc(Cl)cc1Cl
/	0.3	COC(=O)c1sc(C(F)(F)F)c(-c2ccccc2)c1S(=O)(=O)N(C)C
11	/	CCCCN(Cc1ccccc1)C(=O)CN1C(=O)C2C3C=CC(C3)C2C1=O (stereo not drawn)
-18	/	CC(=O)N1CCOc2cc(S(=O)(=O)NCCN(C)C)c(Cl)cc21
41	/	NC(=O)n1c(CCC(=O)O)nc2sc3c(c2c1=O)CCC3
5	-0.1	c1ccc2c3c([nH]c2c1)-c1nonc1CC3
-4	/	O=C(CCCc1nc2ccccc2c(=O)[nH]1)Nc1ccccc1N1CCOCC1
-2	/	CC1CCN(C(=O)c2cc(N(C)S(=O)(=O)c3ccccc3)ccn2)CC1
-3	/	O=C(OCc1nc2ccccc2s1)c1coc2ccccc2c1=O
-16	4.5	Cc1cc(-c2cc(N)n(-c3ccccc3)n2)c(C)n1C1CCCC1
11	0.2	COC1OC(C)C(OCc2ccccc2)C(O)C1O (stereo not drawn)
-3	-4.2	CC(C)Cc1nc2ccc(N)cc2[nH]1
12	1.6	Cc1ccc(-c2n[nH]c(=S)c3ccccc23)cc1S(=O)(=O)NCc1cccnc1
1	/	O=C(Nc1ccccc1C(=O)NC1CCS(=O)(=O)C1)C1=CSCCO1 (stereo not drawn)
2	-1.3	CCN(c1ccccc1)c1ncnc(N)n1
-1	0.6	O=C1C2CCCC1C(c1ccc3c(c1)OCO3)NC2c1ccc2c(c1)OCO2 (stereo not drawn)
5	/	COc1ccc(CCNC(=O)COc2nsnc2N2CCOCC2)cc1OC
2	/	COc1ccc2nc(N(CCN(C)C)C(=O)C3CCCCC3)sc2c1
-183	-2.2	c1csc(Nc2nc3cc4c(cc3s2)OCO4)n1
7	/	COC(=O)C1=C(CSc2nc(C)cc(C)n2)NC(=O)NC1c1ccc(F)cc1 (stereo not drawn)
/	-1.4	COC(=O)c1ccsc1N1C(=O)C=C(C)C1=O
-1	-1.5	Cc1cccc(C(=O)N(CC#N)CC#N)c1
1	/	CCCCNC(=O)C1CCN(S(=O)(=O)CC)CC1
5	/	COc1ccc(Cc2nc3ccccc3[nH]2)cc1
-19	/	COC(=O)c1coc(-c2ccccc2)n1
6	/	Cc1cc(NC(=O)C(C)SCC(=O)O)no1 (stereo not drawn)
14	-3.4	O=C(c1nc2ccccc2[nH]1)N1CCOCC1
1	-0.5	COc1ccc(C2NS(=O)(=O)N=C2N)cc1 (stereo not drawn)
-100	/	CCOC(=O)/C(C#N)=C/c1cc(C(=O)OCC)c(N)s1
23	/	Cc1[nH]c2ccccc2c1C1=CCN(S(=O)(=O)c2cccc3nsnc23)CC1

# Source: PubChem (ICCB-Longwood Screening Facility, Harvard Medical School)
